Screening data: PubChem BioAssay, National Center for Advancing Translational Sciences (NCATS)
PMP22 txn prim = Cell-based coincidence reporter assay to measure PMP22 gene transcription in S16 Pmp22-F2sN cells - Primary screen | S16 Pmp22-F2sN Schwann cells (luciferase reporters placed in the Pmp22 gene), FLuc/NLuc coincidence luminescence, 24 h | 43,000 compounds, 2% hits | Potency, µM (doses to about 57.5 µM), without a hit: at the highest dose activity change, negative = inhibition, most hits filed as inhibitors; active = clear falling dose curves in both reporters; inconclusive = both reporters move, but less clearly or upward; inactive = either reporter flat; the % is the NLuc reporter signal; also: % is scaled to controls: 0 for no effect and ±100 for the full control effect; some results filed as inactive show a strong effect at the top dose
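Transcriptional readout in edited S16(c9) cells: two luciferases reported from the Pmp22 locus, measured in turn after 24 h compound incubation.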
HTT promoter inh = Primary qHTS for Identification of Small Molecule Inhibitors of Huntingtin Promoter Activity; Potency, µM (doses to about 57.5 µM), for inactives: at the highest dose activity change, negative = inhibition, hits mostly inhibitors; 48,000 compounds, 0.93% hits; HEK293 HTT promoter firefly luciferase reporter (activity 0% = vehicle and -100% = no light), 24 h; AID 1508623, 2021; active = well fitted inhibition curve with a large enough effect; inconclusive = small, poorly fitted or top-dose-only effect; inactive = no such curve, though single readings can be large or run the other way; also: nearly all actives have a fitted effect of over 50% in size
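Firefly luciferase signal from promoter-reporter HEK293 cells was scaled between vehicle (0%) and zero RLU (-100%). Compounds were tested at final concentrations of up to 57.5 uM over 24 h at 37 degrees C. PTC124 at 50 uM final served as control inhibitor.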
* marks the source's active call; other numbers are inactive results; u = inconclusive; x = not tested or not shown; [ ] = another dose, or the depositor's remark. Potency is read from the fitted curve at half-maximal effect.

The line under a structure holds: PMP22 txn prim | HTT promoter inh
> CCc1cc(C(=O)N2CCN(c3ccccc3)CC2)no1
 : 2.2% | -6.6%[11.5 µM]
> COc1ccccc1CNc1cc(C)nc2nc(-c3ccc(C)cc3)nn12
 : -29.1% | -19.9%
> Cc1c(C(=O)N(C)C)sc2c1c(=O)n(-c1ccc(F)cc1)c(=O)n2Cc1cc(=O)n2ccccc2n1
 : 10.8% | -7.2%
> COc1cccc(C(=O)Nc2cccc(OCc3cc(=O)n4cc(C)ccc4n3)c2)c1
 : 3.3% | 2.6%
> CCCOc1ccc(Oc2nc(NCC(C)C)nc(N(C)C)n2)nn1
 : u | -18.4%
> Cc1ccc(N2CCN(C(=O)c3cnn(-c4ccc(F)cc4F)c3C3CCN(C(=O)OC(C)(C)C)CC3)CC2)c(C)c1
 : u | -12.8%
> Cc1ccc(CCNC(=O)c2cc3sccc3n2Cc2ccc(Cl)cc2)cc1
 : -3.0% | -21.5%
> CCc1ccc(C2CC(=O)Nc3c2c(C)nn3-c2nc(C)cc(C)n2)cc1 (centres undefined)
 : u | u
> CCN(CC)c1ccc(NC(=O)C2CCN(c3nnc(-n4cccc4)s3)CC2)c(C)c1
 : u | -33.6%
> Cc1cc(C)cc(OCC(=O)Nc2c(C)ccc3nsnc23)c1
 : -10.3% | -16.7%
> O=C(CSc1nc(=O)n(Cc2cccnc2)c2c1CCC2)Nc1cccc(Cl)c1
 : -19.0% | u
> Cc1ccc(C(=O)Nc2nnc(SCc3cc(=O)c4c(C)ccc(C)c4[nH]3)s2)cc1
 : -28.0% | u
> Cc1ccc(Cc2cn3cc(-c4ccccc4)nc3s2)cc1
 : u | u
> COC(=O)c1ccc(Cn2c(=O)cc(C(F)(F)F)c3c(C)nn(C)c32)cc1
 : u | -17.6%
> COc1ccc2sc(N(Cc3cccnc3)C(=O)c3cccs3)nc2c1
 : -52.8% | 14.1µM*

Reformatted with each value named: three of the compounds above
CCc1ccc(C2CC(=O)Nc3c2c(C)nn3-c2nc(C)cc(C)n2)cc1 (centres undefined)
  PMP22 txn prim = u
  HTT promoter inh = u
CCN(CC)c1ccc(NC(=O)C2CCN(c3nnc(-n4cccc4)s3)CC2)c(C)c1
  PMP22 txn prim = u
  HTT promoter inh = -33.6%
Cc1cc(C)cc(OCC(=O)Nc2c(C)ccc3nsnc23)c1
  PMP22 txn prim = -10.3%
  HTT promoter inh = -16.7%

Additional structures:
The line under a structure holds: PMP22 txn prim | HTT promoter inh
> CCCCc1nn2c(=O)cc(COC(=O)C3CCCCC3)nc2s1
 : u | -6.5%
> COC(=O)c1c(SCC(=O)Nc2cc(C)cc(C)c2)[nH]c2ccccc2c1=O
 : u | -23.1%
> COc1ccc(CCN2C(=O)N(c3ccc(C)cc3)C(=O)C2CC(=O)Nc2ccc(F)cc2)cc1 (centres undefined)
 : -75.2% | -26.5%
> CCCCOC(=O)c1ccc(NC(=O)c2cc3c(=O)n4cccc(C)c4nc3s2)cc1
 : 7.2% | 19.4%
> NC(=O)NN=Cc1ccc([N+](=O)[O-])o1
 : x | 3.4%
> O=C(COCc1cc(-c2ccc3c(c2)OCO3)on1)Nc1cc(Cl)ccc1O
 : u | -4.1%
> Cn1c(NCc2ccccc2F)nc2ccccc21
 : 18.5% | 70.3%[activator]
> CCCC1N=C2c3ccccc3N=C(SCC(=O)NCCc3ccc(Cl)cc3)N2C1=O (centres undefined)
 : u | -3.0%
> Cc1csc2nc(COC(=O)CNC(=O)c3ccc(F)cc3)cc(=O)n12
 : 2.4% | 5.7%
> COc1cc(NC(=O)N2CCC3(CC2)Nc2ccccc2-n2cccc23)cc(OC)c1OC
 : u | u
> Cc1cc(OCC(=O)N(Cc2ccc(N(C)C)cc2)C2CCS(=O)(=O)C2)cc(C)c1Cl (centres undefined)
 : u | u
> COc1ccc(N(CC(=O)N2CCN(c3ccc(F)cc3)CC2)S(=O)(=O)c2c(C)nn(C)c2C)cc1
 : -0.7% | -10.5%
> CCCCCn1c(=O)[nH]c2cc(C(=O)NCc3ccccc3)ccc2c1=O
 : -23.9% | -4.6%
> CC(C)c1ccc(NC(=O)C2CCCN(S(=O)(=O)c3ccc(Br)s3)C2)cc1 (centres undefined)
 : u | u
> COc1ccc(-c2cc3nc(C)c(CCC(=O)N4CCN(c5ccccc5)CC4)c(C)n3n2)c(OC)c1
 : -2.8% | -10.0%
> Cn1c(=O)c(=O)n(C)c2cc(S(=O)(=O)N3CCCC3C(=O)Nc3ccc(F)cc3)ccc21 (centres undefined)
 : 3.1% | -11.3%
> COC(=O)c1cc2sccc2n1CC(=O)Nc1ccc(OC)c(OC)c1
 : -6.3% | -21.3%
> CC1=C(C(=O)OCc2ccc(C)cc2)C(c2ccccc2F)CC(=O)N1 (centres undefined)
 : -6.7% | u
> Cc1noc(Cn2c(=O)c3ccccc3n(CC(=O)Nc3cc(Cl)ccc3C)c2=O)n1
 : 11.1% | -4.9%
> Cc1cccc(-n2ncc(C(=O)N3CCc4ccccc4C3)c2C2CCN(C(=O)OC(C)(C)C)CC2)c1
 : -25.8% | 0.2%
> O=c1cc(CSc2ncn[nH]2)[nH]c2ccc(F)cc12
 : -12.6% | 5.5%
> CCCSc1nnc2c(n1)OC(c1ccc(Br)s1)Nc1ccccc1-2 (centres undefined)
 : -22.6% | 26.6%
> COc1ccc(S(=O)(=O)c2nnn(-c3ccc(C(C)C)cc3)c2C)cc1
 : u | u
> CSc1ncc(C(=O)Nc2ccccc2C(F)(F)F)c(-c2ccccc2)n1
 : -24.1% | 1.3%
> COc1cc(NC(=O)c2ccc(-c3nc(CSc4ccccc4)c(C)o3)cc2)cc(OC)c1
 : -39.6% | u
> COc1cccc(NC(=O)c2ccc3c(c2)CCN3S(C)(=O)=O)c1
 : -5.0% | 45.3%[activator]
> CCn1c(C)c(C)c2cc(C(=O)NCCCN3CCCCC3C)ccc21 (centres undefined)
 : -25.5% | 2.9%
> O=c1c(=O)n(-c2ccc(F)c(F)c2)ccn1Cc1ccc(F)cc1Cl
 : -23.0% | -21.7%
> CCOC(=O)c1ccccc1NC(=O)NCc1cccn1Cc1ccc(F)cc1
 : u | u
> Cc1cc2nn(-c3ccc(Cl)cc3)nc2cc1NC(=O)C(C)C
 : -0.6% | -78.3%
> N#Cc1c(C(F)(F)F)cc(-c2cccs2)nc1SCc1ccccc1F
 : -9.5% | -21.1%
> Cc1cc(-c2ccc(C)c(S(=O)(=O)NC3CCCCC3)c2)on1
 : -13.3% | u
> Cc1cc(C)c2oc(C(=O)Nc3c(C(=O)c4ccccc4)oc4ccccc34)cc(=O)c2c1
 : -10.1% | 15.4%
> CN(C)c1cc(NC(=O)CNC(C)(C)C)c(O)c2c1C[C@@H]1C[C@H]3[C@H](N(C)C)C(=O)C(C(N)=O)=C(O)[C@@]3(O)C(=O)C1=C2O
 : x | -4.3%
> CCOC(=O)Cn1c(=O)oc2cc(S(=O)(=O)N3CCN(c4cccc(C)c4)C(C)C3)ccc21 (centres undefined)
 : -8.7% | -25.5%
> O=C(CSc1nc(-c2ccc(F)cc2)cc(C(F)(F)F)n1)NCc1ccccc1
 : u | -25.5%
> NC(=O)C1CCN(c2csc3ccc(F)cc3c2=O)CC1
 : 20.0% | -0.7%
> Cc1cccc(-c2nc3c4ccccc4nc(NCc4ccccc4Cl)n3n2)c1
 : -21.5% | 46.5%[activator]
> Cc1sc2c(c1C)c(=O)n(-c1ccc(Cl)cc1)c(=O)n2Cc1c(F)cccc1Cl
 : -21.3% | -13.2%
> Cc1cc(Nc2cccc(C(F)(F)F)c2)nc2ccc(NC(=O)c3cncc(Br)c3)cc12
 : u | u
> COc1ccc(NC(=O)CSc2nc3nc(C)cc(C)n3n2)cc1
 : -6.2% | -6.2%
> Cc1cc(N2CCC(C(=O)N(CC(C)C)CC(C)C)CC2)n2nc(C)c(-c3ccc(Cl)cc3)c2n1
 : 8.1% | -6.5%
> CCOc1ccc(-c2nc(SCC(=O)Nc3ccc4c(c3)OCO4)c(-c3ccc(F)cc3)[nH]2)cc1
 : -13.8% | -27.5%
> CC(C)C[C@H](NC(=O)c1cc2ccccc2s1)C(=O)N1CCN(C(=O)[C@H](CO)NS(=O)(=O)c2ccc(Cl)cc2Cl)CC1
 : x | -28.4%
> Cc1nc2nc(NC(=O)c3ccc(C(C)(C)C)cc3)[nH]n2c(=O)c1Cc1ccccc1
 : 20.8% | -10.6%
> COC(=O)CCN(c1ccccc1)C(CNS(=O)(=O)c1ccccc1)c1ccccc1 (centres undefined)
 : -25.7% | u
> COc1cc2c(cc1NC(=O)COc1ccc(Br)cc1C)oc1ccccc12
 : -23.5% | 1.6%
> CC(C)c1ccc(OCC(=O)Nc2ccc(S(=O)(=O)Nc3ncccn3)cc2)cc1
 : 65.0% | -7.7%
> Cc1ccc(Nc2c(-c3cccnc3)nc3ccc(Cl)cn23)cc1
 : -14.5% | -14.5%
> O=C(NCC(c1ccc2c(c1)OCO2)N1CCOCC1)c1cccc(Cl)c1 (centres undefined)
 : 5.3% | -6.4%
> COc1cccc(C(=O)Nc2ccc(-c3cn4cccnc4n3)cc2)c1OC
 : -0.7% | 10.3%
> CCC(=O)N1c2ccc(S(=O)(=O)N3CCC(C)CC3)cc2CC1C (centres undefined)
 : -8.8% | -30.6%
> COc1ccccc1-c1nn(CCC(=O)Nc2ccccc2)c2nc(C)cc(C)c12
 : 11.8% | -15.4%
> Cc1cccc(-c2cc(C(=O)O)c3c(-c4ccc(F)cc4)[nH]nc3n2)c1
 : u | -8.6%
> CC(C)(C)c1ccc(C(=O)NCC(c2cccs2)S(=O)(=O)c2ccccc2)cc1 (centres undefined)
 : u | u
> Cc1ccc(-c2nc(CS(=O)(=O)CC(=O)NCc3ccccc3Cl)c(C)o2)cc1
 : 18.4% | -2.2%
> CCN(CC)C(=O)CSc1nnc2ccc3ccccc3n12
 : 0.1% | 15.9%
> COc1ccc(CNC(=O)c2ccc3c(c2)N(Cc2ccccc2F)C(=O)c2ccccc2S3(=O)=O)cc1
 : 0.2% | -11.7%
> CCc1ccc(CN(Cc2ccco2)C(=O)COc2ccccc2Cl)cc1
 : u | u
> Cc1[nH]c(=O)[nH]c(=O)c1S(=O)(=O)Nc1cccc(Cl)c1C
 : 3.6% | -8.0%

The list goes on:
The line under a structure holds: PMP22 txn prim | HTT promoter inh
> CC(C)COc1ccc(C(=O)N2CCN(CCc3ccccn3)CC2)cc1
 : 0.6% | -14.1%
> CCCCN1CC(c2nc3ccccc3n2CCCCOc2c(C)cccc2C)CC1=O (centres undefined)
 : u | u
> COC(=O)c1cc(NC(=O)CCS(=O)(=O)c2cc(Br)cc3c2N(C(=O)C2CC2)CC3)cc(C(=O)OC)c1
 : -1.4% | -7.9%
> CCc1ccc(OC(=O)CSc2nnc(-c3ccc4c(c3)OCO4)o2)cc1
 : -1.9% | -7.0%
> COc1ccc(C(=O)NCC(c2ccco2)S(=O)(=O)c2cccs2)cc1OC (centres undefined)
 : u | -22.7%
> CCOC(=O)c1c(S(=O)(=O)NCC(=O)Nc2ccc(Cl)c(C(F)(F)F)c2)c(C)n(C)c1C
 : u | u
> CCOc1ccc2c(c1)c(=O)c(C(=O)c1ccc(C)cc1)cn2Cc1ccccc1OC
 : u | -31.2%
> CC(=O)N1CCCc2cc(S(=O)(=O)N3CCCC(C(=O)N4CCN(c5ccccc5)CC4)C3)ccc21 (centres undefined)
 : u | 11.2µM*
> CCn1cc(C(=O)OCC(=O)Nc2cccc(Cl)c2C)c(=O)c2ccc(C)nc21
 : -8.2% | -6.7%
> CCN(C(=O)NCc1noc2ccccc12)c1cc(C)ccc1C
 : -1.2% | -25.3%
> CCc1cccc(C)c1NC(=O)CSc1nnc(CC)n2c1cc1occc12
 : u | u
> Cc1ccc(-n2c(SCc3nc(-c4ccc(Cl)cc4)no3)nnc2-c2ccncc2)cc1
 : 12.6µM* | u
> O=C(NC1CC(=O)N(c2ccc(Cl)cc2)C1)c1cccs1 (centres undefined)
 : 26.4% | -11.4%
> CCS(=O)(=O)Nc1cc(-c2cn3ccc(C)cc3n2)ccc1C
 : -23.8% | 57.7%[activator]
> COc1ccc(NC(=O)CSc2nc(-c3cccc(C)c3)[nH]c2-c2ccccc2)cc1OC
 : u | u
> Cc1c(C)c2c(c(C)c1OC(=O)CCC(=O)OCCO)CC[C@@](C)(CCC[C@H](C)CCC[C@H](C)CCCC(C)C)O2
 : x | -28.5%
> COc1ccc(C(=O)NCC(c2ccc(N(C)C)cc2)N2CCCC2)cc1 (centres undefined)
 : -8.6% | -13.3%
> CCOC(=O)C1=C(N)Oc2ccc(Br)cc2C1C(C#N)C(=O)OCC (centres undefined)
 : x | 11.6%
> O=C(Nc1cccc(OCc2cc(=O)n3ccccc3n2)c1)Nc1cccc(C(F)(F)F)c1
 : -16.2% | 27.9%
> COc1ccccc1CNC(=O)C1CCN(S(=O)(=O)c2c(C)noc2/C=C/c2c(C)cc(C)cc2C)CC1
 : 4.5% | -25.6%
> CCOC(=O)c1c(NC(=O)COc2c(C)cc(Cl)cc2Cl)sc2c1CCCC2
 : -1.7% | -37.4%
> CCN1CCN(C(=O)c2ccc3c(c2)N(Cc2cccc(F)c2)C(=O)c2ccccc2S3)CC1
 : 2.2% | -15.1%
